Compound activity as filed in PubChem BioAssay.
HCMV UL50-53 inh: disrupts HCMV UL50-UL53 complex binding; HTRF UL50-UL53 interaction, normalized percent inhibition; inhibition, % (no concentration beside the values); actives 0.15% (n = 190,000); AID 1918969;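 active = both replicates at 50% or more, plus weaker picks with an unusually low signal ratio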;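 note: stock transfer was 100 nL into about 20 µL; 0% = negative control wells and 100% = wells with untagged competitor protein; inactives centre near -12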
Sa growth inh: blocks Staphylococcus aureus growth; relative growth, % (test concentration not listed); actives 0.53% (n = 170,000); S. aureus RN4220 growth, OD600, 20 h, 42 °C; stronger effect = lower value;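 active = growth at 42 °C up to 50% and 20 or more points under that at 30 °C, or under 10% at both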;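 note: 300 nL library stock went into each well; scaled to the means of positive and negative controls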
GIV-Gai inh: GIV-Galpha-i interaction inhibition | Galpha-i3/FITC-GIV peptide fluorescence polarization, 90 min; stronger effect = lower value; scaled: aluminum fluoride 0%, vehicle 100% | P08753 | actives 0.42% (n = 210,000) | percent of control (FP), % (no concentration beside the values);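 active = replicate mean at 85% of control or lower, very high polarization wells dropped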;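 note: wells of about 15 µL received 100 nL stock; the first replicate is given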
Target sequence (P08753 whole entry, looked up): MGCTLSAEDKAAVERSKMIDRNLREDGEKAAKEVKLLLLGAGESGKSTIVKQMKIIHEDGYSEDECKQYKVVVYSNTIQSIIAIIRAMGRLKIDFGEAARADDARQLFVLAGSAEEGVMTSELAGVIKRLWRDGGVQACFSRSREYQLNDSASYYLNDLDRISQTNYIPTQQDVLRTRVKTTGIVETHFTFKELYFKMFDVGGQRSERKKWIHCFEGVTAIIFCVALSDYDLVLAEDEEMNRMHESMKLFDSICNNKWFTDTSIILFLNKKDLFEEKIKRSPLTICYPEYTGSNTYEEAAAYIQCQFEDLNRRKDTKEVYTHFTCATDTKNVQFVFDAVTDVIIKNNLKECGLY
Sa growth inh second temp: also measured in Sa growth inh; calls as there; relative growth, %; measured here: growth at 30 °C;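 optical density after 20 h as mean of two plates; 100% = untreated growth and lower means inhibition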
An asterisk follows results filed as active; . = not tested or not shown; & = joins results of further samples. Rows were taken by chance, and some 0.83% of all compounds hit somewhere here.

SMILES	HCMV UL50-53 inh	Sa growth inh	Sa growth inh second temp	GIV-Gai inh
CCCC(=O)N(Cc1nc2nc(C)cc(C)n2n1)c1cccc(Cl)c1	1	.	.	108
Ic1ccc(-c2ncc3ccccn23)cc1	-68	67	58	.
Cc1cc(Nc2ccc(Cl)cc2)c2ccccc2n1	-27	75	70	.
O=C(CN(CCO)C(=O)c1ccc(Cl)cc1)Nc1ccc(F)cc1	-14	75	80	.
Nc1ccc(OC(F)(F)C(F)F)c(N)c1	5	120	107	106
CCOC(=O)/C(C#N)=C/c1cn(CCC#N)nc1-c1ccccc1	-84	97	78	.
Cc1nc(-n2[nH]c(C)c(CCC(=O)N3CCCCC3)c2=O)sc1C	-13	.	.	102
O=c1c(C=Nc2cc(Cl)ccc2O)c(O)n(C2CCCCC2)c(=O)n1C1CCCCC1	10	60	58	118
O=C(Nc1ccc(F)c(F)c1)c1cc(S(=O)(=O)NC2CCCCCC2)ccc1F	.	99	96	105
O=C(CCc1nc(-c2cc3ccccc3[nH]c2=O)no1)NCCc1ccccc1	-28	.	.	103
CCCc1ccc2c(N)c(C(=O)c3ccc(Br)cc3)sc2n1	-6	85	91	.
CC(Sc1nc(N)cc(N)n1)C(=O)Nc1cccc(Cl)c1 (configuration not stated)	-4	108	90	106
O=C(COC(=O)c1cccc2ccccc12)c1ccc(F)cc1	6	104	100	.
O=C1CSc2ccccc2N1Cc1n[nH]c(=S)n1Cc1ccccc1	-19	98	81	105
COc1cc(-c2noc(-c3ccc(N4CCOCC4)c([N+](=O)[O-])c3)n2)cc(OC)c1OC	-28	99	86	102
CCOc1ccc(CC(=O)O)cc1OCC	0	103	104	106
Cc1cc2c(cc1C)C(Nc1ccccc1)=NC(C)(C)C2	.	95	90	97
CCc1ccc(S(=O)(=O)c2cn(C)c3cc(N4CCCC4)c(F)cc3c2=O)cc1	.	133	91	108
Cc1cc(=O)oc2cc(OCC(=O)N(C)C)ccc12	-9	103	87	.
Cc1nc2c3ccccc3n3c(CCCC(=O)NCc4ccc(Cl)cc4)nnc3n2n1	-20	.	.	106
CN(C)c1ccc(CNc2nc(-c3ccco3)nn2S(=O)(=O)c2ccc(Cl)cc2)cc1	6	85	92	106
Clc1ccc(Cl)c(-c2ccc(CNCC3CCCO3)o2)c1 (configuration not stated)	0	.	.	102
Brc1ccc(-c2csc(-c3nc(-c4ccccc4)cs3)n2)cc1	6	.	.	105
CCOC(=O)c1c(C)nc2c(C)cccn12	-2	.	.	106
CSC(SC)=C(C#N)C(=O)C1CC1	-7	106	83	99
COc1ccc(-c2nc(CN3CCC(C(=O)NC(C)C)CC3)c(C)o2)cc1OC	.	94	86	96
CCOc1cccc(=O)c2c(C)[nH]c(C)c12	-108	108	84	127
O=C(Cn1c(=O)n(-c2cccc(Cl)c2)c(=O)n1CC(=O)N1CCCCC1)N1CCCCC1	5	93	92	101
Cc1ccc2nsnc2c1S(=O)(=O)NCCc1c(C)[nH]c2ccccc12	-76	.	.	99
CCC(=O)Nc1nc2ccc(NS(=O)(=O)Cc3ccccc3)cc2s1	-10	.	.	98
CCc1ccc(C2=C(C)C(=O)N(CC(=O)Nc3cc(C)ccc3C)S2(=O)=O)cc1	-22	.	.	96
CCN1CCN(C(=O)C2C3CCC(C3=C(C)C)C2C(=O)O)CC1 (configuration not stated)	-64	104	84	96
CCCCOc1cccc(C(=O)NCc2csc(-c3ccccc3)n2)c1	12	.	.	103
COc1ccc(N(C(=O)c2cccc(C)c2)S(=O)(=O)c2ccc(C)cc2)cc1	-42	94	77	107
COC(=O)C1SC/C(=N\O)C1C(=O)OC (configuration not stated)	.	107	84	97
CCc1cccc(CC)c1NC(C)=O	12	111	102	109
CCS(=O)(=O)c1ccc(O)c(NC(=O)Nc2ccccc2OC)c1	1	88	87	122
Cc1cc(C(=O)CSc2nc3ccccc3c(=O)n2CC(C)C)c(C)n1-c1nccs1	-14	81	95	.
CSc1ccc(OC(=O)Nc2ccc(Cl)cc2)cc1	-15	100	94	102
Cc1nc(-c2ccc(-c3noc(C)n3)cc2)no1	4	104	101	99

As entered above:
GIV-Gai inh with `CCC(=O)Nc1nc2ccc(NS(=O)(=O)Cc3ccccc3)cc2s1` stands at 98
HCMV UL50-53 inh with `COc1ccc(N(C(=O)c2cccc(C)c2)S(=O)(=O)c2ccc(C)cc2)cc1` stands at -42
Sa growth inh second temp with `CCOC(=O)/C(C#N)=C/c1cn(CCC#N)nc1-c1ccccc1` stands at 78
HCMV UL50-53 inh with `CCOc1cccc(=O)c2c(C)[nH]c(C)c12` stands at -108
HCMV UL50-53 inh with `Cc1nc(-n2[nH]c(C)c(CCC(=O)N3CCCCC3)c2=O)sc1C` stands at -13
HCMV UL50-53 inh with `CC(Sc1nc(N)cc(N)n1)C(=O)Nc1cccc(Cl)c1` (configuration not stated) stands at -4

Four entries from above, with two lines to a compound:
Below each SMILES: HCMV UL50-53 inh | Sa growth inh | Sa growth inh second temp | GIV-Gai inh
- CCCC(=O)N(Cc1nc2nc(C)cc(C)n2n1)c1cccc(Cl)c1
→ 1 | . | . | 108
- Ic1ccc(-c2ncc3ccccn23)cc1
→ -68 | 67 | 58 | .
- Cc1cc(Nc2ccc(Cl)cc2)c2ccccc2n1
→ -27 | 75 | 70 | .
- O=C(CN(CCO)C(=O)c1ccc(Cl)cc1)Nc1ccc(F)cc1
→ -14 | 75 | 80 | .

New compounds follow.
SMILES	HCMV UL50-53 inh	Sa growth inh	Sa growth inh second temp	GIV-Gai inh
CCCC(=O)N/N=C/c1ccc(Br)cc1	-12	93	95	.
O=C(Nc1ccc(C(=O)N2CCN(c3ccc(F)cc3)CC2)cc1)c1nsc2ccccc12	.	100	84	106
CCc1cc2c(=O)c(-c3ccc4c(c3)OCO4)c(C(F)(F)F)oc2c(CN(C)C)c1O	-10	.	.	105
Cc1ccc(N(CC(N)=O)S(=O)(=O)c2ccccc2)cc1	-1	98	105	106
COc1ccc(OC)c(NC(=O)Cn2c(=O)n(Cc3nc(C)no3)c(=O)c3ccccc32)c1	-7	90	91	103&108
Cc1cc(N2CCCCC2)nc2ccc(NC(=O)CCC3CCCC3)cc12	.	89	84	98
COc1ccc2c(c1)CC(NC(=O)Nc1ccc(Br)c(C)c1)CO2 (configuration not stated)	.	94	89	97
Cc1cccc(-c2nsc(SCC(=O)N3CCCCC3)n2)c1	.	86	84	101
Cc1ccc(C(=O)CSc2n[nH]c(C(F)(F)F)n2)cc1	-28	119	83	102
Cc1ccc2nc(-c3ccc(C#N)cc3)cn2c1	-14	100	93	97
Cc1ccc(-n2ncc3c(Nc4ccc5c(c4)OCCO5)ncnc32)cc1Cl	.	114	96	112
Nc1cccc2c1C(=O)N(Cc1ccccc1)C2=O	-74	111	90	88
O=C(NCc1ccc(Cl)cc1)c1cnn(-c2ccccc2)c1	-16	.	.	108
CCOc1ccc2nc(C(=O)N3CCCCCC3)sc2c1	-10	101	87	100
COc1ccc(CCNC(=O)CCN2C(=S)NC(C)(C)CC2C)cc1OC (configuration not stated)	.	109	94	102
CCN(CC)c1nc(C)cc(COC)c1C#N	-4	101	92	105
Cc1nc2nc3c(c(Nc4ccccc4)n2n1)CCCC3	-18	.	.	105
NC(=O)CN1c2ccccc2-c2ccccc2S1(=O)=O	-15	110	84	103
O=C(Cn1c(-c2cccs2)cc2cc(Cl)ccc21)N1CCCCC1	.	106	97	106
COc1cccc(NC(=O)Nc2ncccc2C)c1	-17	106	97	96

Exported as a markdown table: part of the list above
| SMILES | HCMV UL50-53 inh | Sa growth inh | Sa growth inh second temp | GIV-Gai inh |
| --- | --- | --- | --- | --- |
| O=C(Nc1ccc(C(=O)N2CCN(c3ccc(F)cc3)CC2)cc1)c1nsc2ccccc12 | . | 100 | 84 | 106 |
| CCc1cc2c(=O)c(-c3ccc4c(c3)OCO4)c(C(F)(F)F)oc2c(CN(C)C)c1O | -10 | . | . | 105 |

Following part:
SMILES	HCMV UL50-53 inh	Sa growth inh	Sa growth inh second temp	GIV-Gai inh
O=C(c1cc(=O)n2c(nc3ccccc32)s1)N1CCN(c2ccccc2)CC1	-3&-16	98	97	99&94
Cc1csc(C(C#N)C(=O)CSc2nnc(NC3CC3)s2)n1 (configuration not stated)	-27	115	88	.
Cc1cc2nc(C)n(CCCNC(=O)Nc3ccc(F)cc3)c2cc1C	-11	93	64	106
COc1ccccc1CNC(=O)CSc1nc2nc(C)c(Cc3ccccc3Cl)c(C)n2n1	-20	97	90	101
N#Cc1ccc(N2C(=O)C3C4C=CC(O4)C3C2=O)cc1 (configuration not stated)	-6	.	.	101
CCCCn1c(=O)[nH]c2ccccc21	-18	105	90	101
Cc1cc2c(cc(C(=O)OC(C(=O)NCC3CCCO3)C(C)C)n2C)o1 (configuration not stated)	-12	108	78	104
CCOC(=O)c1c(-c2ccc(Cl)cc2)csc1NC(=O)C1=Cc2ccccc2OC=C1	2	.	.	98
COc1cccc(C(=O)N(Cc2sccc2C)C2CCS(=O)(=O)C2)c1 (configuration not stated)	-20	100	86	98
CC(C1CC2CCC1C2)n1c(-c2cccs2)n[nH]c1=S (configuration not stated)	-4	67	63	.
Cc1cccc(OCC(=O)N(Cc2cccc(Cl)c2)Cc2ccco2)c1C	1	103	94	105
Cc1ccc2cnn(CC(=O)NCc3cccnc3)c2c1	-2	80	89	101
Cc1ccc(NS(=O)(=O)c2ccc3nc(-c4ccccc4)[nH]c3c2)cc1Cl	5	99	100	110
O=C1NC(=S)N/C1=C\c1cc(Br)cc(Br)c1O	-12	.	.	117
CC1=C(C(=O)OCC(F)(F)F)C(c2ccc3c(c2)OCO3)NC(=O)N1 (configuration not stated)	-1	84	85	.
C/C=N/NC(=O)COc1ccc(Cl)cc1	-20	90	84	98
O=S(=O)(c1ccc(C2CCCCC2)cc1)N1CCN(c2cc(Cl)ccc2Cl)CC1	-15	97	94	107
CCCC1CCCCNC1=O (configuration not stated)	-5	119	73	102
Cc1cccc(NC(=O)N2CCCC2c2ccc(Cl)cc2)c1C (configuration not stated)	-9	.	.	105
Cc1ccc(Cn2nnc(-c3cc(Cl)cc(Cl)c3)n2)cc1	-8	105	86	102
Cc1n[nH]c(C)c1N1C(=O)c2cccc3c(Br)ccc(c23)C1=O	-135	102	98	99
CC(=O)N(c1nnc(-c2ccc(C)cc2)s1)C1CCCC1	-4	116	77	105
O=C(O)CCc1ccc(-c2ccccc2)n1NC(=O)c1ccccc1Br	.	102	92	104
O=C(NCC1CCCO1)C1CCN(c2cc(-c3cccc(F)c3)ncn2)CC1 (configuration not stated)	-30	.	.	100
CCOc1cccc(=[O+]CC)c2c(C)oc(C)c12	.	88	64	68*
COC(=O)C1=C(C)NC(=O)/C1=C\c1ccc2c(c1)OCO2	-18	104	89	.
Cc1cc2nc3s/c(=C/c4ccc(-c5ccccc5C(=O)O)o4)c(=O)n3c2cc1C	-60	.	.	212
O=C(NCc1cccs1)c1ccc2nccnc2c1	-49	110	89	101
Cc1ccc(S(=O)(=O)Nc2cc3[nH]c(=O)[nH]c3cc2Cl)cc1C	-29	.	.	105
Cc1ccccc1C(=O)NC1(C(F)(F)F)N=C(c2ccccc2)N(C2CCCCC2)C1=O (configuration not stated)	-17	99	88	110
Cc1nn(-c2ccc(-c3noc(C4CC4)n3)cc2)cc1C(=O)N1CCc2ccccc21	-31	.	.	104
CCc1ccc2c(c1)NC(c1cccnc1)=NC(c1ccc(C(C)(C)C)cc1)=N2	-25	90	85	99
Cc1ccc(NC(=O)NC(=O)Cn2nnc(-c3ccc(Cl)cc3)n2)c(C)c1	3	98	97	.
CCN(CC)CCCNC(=O)c1ccc2c(=O)n(CCc3ccccc3)c(=O)[nH]c2c1	-4	91	92	103
COCCNC(=O)c1ccc2snnc2c1	-15	104	91	107
COc1cc(Br)cc2cc(C(=O)NCc3ccc4c(c3)OCO4)c(=O)oc12	0	102	88	101
COc1ccc(CNC(=O)CN2C(=O)C(C)=C(c3ccc(C)cc3)S2(=O)=O)cc1	-23	99	80	102
N#C/C(=C\c1cn(-c2ccccc2)nc1-c1ccccc1Cl)C(N)=O	-10	98	86	.
Cc1ccc(-c2noc(CCC(=O)Nc3cccc4nsnc34)n2)cc1	-12	.	.	102
O=C1CC(c2ccc(F)cc2)c2c(c3ccccc3[nH]c2=O)O1 (configuration not stated)	-32	105	89	106
COC(=O)CN1C(=O)c2ccccc2NC1c1ccc(OC)cc1 (configuration not stated)	-31	114	85	99
COC(=O)c1ccccc1NC(=O)CCCn1nc(C)c2c(C)n(-c3ccccc3)nc2c1=O	.	106	89	98
Cc1cccc(-c2nc3s/c(=C\C4=Cc5ccccc5OC4)c(=O)n3n2)c1	.	97	92	103
COCCCNC(=O)c1ccc(-n2c(-c3ccccc3)cc3c2CCC(C)C3)cc1 (configuration not stated)	16	106	88	97
CC(=O)n1ccc2ccc(C(=O)CN3CCN(c4ccc(F)cc4)CC3)cc21	0&-31	105	88	101&97
Cc1ccc(OC(=O)c2ccco2)cc1C	-12	99	113	102
CC1(NC(=S)Nc2ccccc2)CCS(=O)(=O)C1 (configuration not stated)	0	99	97	.
CCOc1ccc(NC(=O)Cn2cc(C(=O)c3ccc(C)c(C)c3)c(=O)c3cc(F)ccc32)cc1	-27	107	86	103
O=C(O)C1CCCCC1C(=O)NCC1CCCCC1 (configuration not stated)	-8	100	102	111
COc1ccc(C)cc1NS(=O)(=O)c1ccc2[nH]c(=O)c(=O)[nH]c2c1	10	90	97	103
O=S(=O)(NC1CCCCC1)c1cccc(-c2nnc(-c3ccccc3)o2)c1	4	80	117	.
Cc1c(Cl)cccc1-n1ncc(C(=O)N2CCC(C)CC2)c1C1CCN(C(=O)OC(C)(C)C)CC1	.	88	87	105
